# High-throughput results (PubChem)
# Ran importin: inhibitors of Ran–importin-beta complex formation, primary screen, biochemical, CFP-Ran/YFP-importin-beta FRET, RCC1, cell-free (AID 434961); Regulator of chromosome condensation (Homo sapiens) + GTP-binding nuclear protein Ran …; CFP-Ran/YFP-importin-beta FRET, cell-free; active compounds read high; inhibition, %; 7,700 compounds, 0.2% hits;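 active = more than half of the replicate wells above 15% inhibition; inconclusive = exactly half above it; inactive = fewer than half above it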;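 note: 0% = DMSO wells and 100% inhibition = RanGDP control wells on each plate; stock of unstated strength diluted about 400-fold; mean of two wells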
# An asterisk follows results filed as active; ? = inconclusive.
# The opening two entries, ahead of the listing:
SMILES,Ran importin
C[C@@H]1CN([C@H](C)CO)C(=O)CCCn2nncc2CO[C@@H]1CN(C)C(=O)Oc1ccc2ccccc2c1,4.8
C[C@@H]1CN([C@H](C)CO)C(=O)CCCn2cc(nn2)CO[C@H]1CN(C)C(=O)Oc1ccc2ccccc2c1,0.1

# All compounds of this part, previewed entries included:
SMILES,Ran importin
C[C@@H]1CN([C@H](C)CO)C(=O)CCCn2nncc2CO[C@@H]1CN(C)C(=O)Oc1ccc2ccccc2c1,4.8
C[C@@H]1CN([C@H](C)CO)C(=O)CCCn2cc(nn2)CO[C@H]1CN(C)C(=O)Oc1ccc2ccccc2c1,0.1
C[C@H](CO)N1C[C@H](C)[C@H](CN(C)C(=O)Oc2ccc3ccccc3c2)OCc2cnnn2CCCC1=O,?

# Individual results from the entries so far:
# C[C@@H]1CN([C@H](C)CO)C(=O)CCCn2nncc2CO[C@@H]1CN(C)C(=O)Oc1ccc2ccccc2c1 in Ran importin = 4.8
# C[C@@H]1CN([C@H](C)CO)C(=O)CCCn2cc(nn2)CO[C@H]1CN(C)C(=O)Oc1ccc2ccccc2c1 in Ran importin = 0.1

# Some of the compounds tested; rates above refer to the full screens.
